Screening data: PubChem, National Center for Advancing Translational Sciences (NCATS)
VDR inhibitor: vitamin D3 receptor (human) inhibition | VDR-SRC2-3 peptide fluorescence polarization, 2 h | Potency, µM, without a hit: max response, negative = inhibition, most hits filed as inhibitors | 400,000 compounds, 0.93% hits | AID 504847; active = well fitted inhibition curve with a large enough effect; inconclusive = small, poorly fitted or top-dose-only effect, or another doubt; inactive = no such curve, though single readings can be large or run the other way; note: series mostly up to about 120 µM
Target sequence (P11473 whole entry, looked up): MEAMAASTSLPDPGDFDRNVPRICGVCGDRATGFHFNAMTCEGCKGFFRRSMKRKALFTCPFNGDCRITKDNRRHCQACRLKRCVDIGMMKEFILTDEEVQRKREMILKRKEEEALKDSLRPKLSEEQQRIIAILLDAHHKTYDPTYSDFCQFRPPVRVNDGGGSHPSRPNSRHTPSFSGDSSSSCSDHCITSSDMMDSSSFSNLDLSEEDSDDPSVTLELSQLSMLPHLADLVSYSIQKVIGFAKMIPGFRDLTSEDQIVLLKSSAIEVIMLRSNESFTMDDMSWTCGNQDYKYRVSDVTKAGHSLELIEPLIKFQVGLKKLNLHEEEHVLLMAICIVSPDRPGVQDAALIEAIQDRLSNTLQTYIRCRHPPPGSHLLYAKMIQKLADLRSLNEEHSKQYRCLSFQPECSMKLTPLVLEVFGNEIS
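Inhibition of the VDR/SRC2-3 peptide interaction is quantified by fluorescence polarization. Compounds (23 nl, pintool) incubate with the reagents for 2 hours at ambient room temperature.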
* = called active by the depositor; & = joins results of further samples; [ ] = dose if it differs, or a comment. % is set by controls: 0 for no effect and ±100 for the full control effect; potency is the fitted concentration of half-maximal effect.

`CC1=NCCN1CCNC(=O)Nc1ccc(C(C)(C)C)cc1` gave VDR inhibitor 2.9%.
Screening O=C(COc1cccc(C(F)(F)F)c1)NCC(c1ccco1)N1CCCCC1 (stereo unspecified) returned VDR inhibitor 5.3%.
Screening O=C(NCc1cccnc1)c1cc(S(=O)(=O)N2CCCCC2)ccc1Cl returned VDR inhibitor -9.7%.
For CC(=O)c1cc(CN2CCN(CCC(C)C)C(CCO)C2)cs1 (stereo unspecified) the results were VDR inhibitor inconclusive.
For O=C(Cc1ccccc1[N+](=O)[O-])NCc1ccco1 the results were VDR inhibitor -19.9%.
Screening CSCc1nnc(NC(=O)c2ccc(S(=O)(=O)N(C)C)cc2)o1 returned VDR inhibitor -13.2%.
CCOc1cc(/C=C2/C(=O)NN(c3cccc(Cl)c3)C2=O)ccc1O was read as VDR inhibitor inconclusive.
For Cc1cc(N/C(=N\S(=O)(=O)c2ccc(F)cc2F)c2ccccc2)no1 the results were VDR inhibitor 1.2%.
Screening CCOC(=O)c1ccc(NC(=O)C(C)Sc2nc(O)c(-c3ccccc3)c(=O)[nH]2)cc1 (stereo unspecified) returned VDR inhibitor -4.3%.
COc1ccc(CC(=O)OCC(=O)Nc2ccc(F)cc2)cc1 was read as VDR inhibitor -7.8%.
CCOc1ccc2nc(NC(=O)NC3CCCCC3)sc2c1 was read as VDR inhibitor -0.9%.
CC(C)C[C@H](NC(=O)c1nc[nH]c1C(=O)N1CCc2ccccc2C1)C(=O)OC(C)(C)C was read as VDR inhibitor 3.2%.

Filtered by structure, the compounds so far with a Cl atom.
Screening O=C(NCc1cccnc1)c1cc(S(=O)(=O)N2CCCCC2)ccc1Cl returned VDR inhibitor -9.7%.
CCOc1cc(/C=C2/C(=O)NN(c3cccc(Cl)c3)C2=O)ccc1O was read as VDR inhibitor inconclusive.

The main list resumes; the 4 compounds before the break are reprinted first.
Screening CCOC(=O)c1ccc(NC(=O)C(C)Sc2nc(O)c(-c3ccccc3)c(=O)[nH]2)cc1 (stereo unspecified) returned VDR inhibitor -4.3%.
COc1ccc(CC(=O)OCC(=O)Nc2ccc(F)cc2)cc1 was read as VDR inhibitor -7.8%.
CCOc1ccc2nc(NC(=O)NC3CCCCC3)sc2c1 was read as VDR inhibitor -0.9%.
CC(C)C[C@H](NC(=O)c1nc[nH]c1C(=O)N1CCc2ccccc2C1)C(=O)OC(C)(C)C was read as VDR inhibitor 3.2%.
For Cc1ccc(NC(=O)Cn2c(=O)n(-c3ccc(C)cc3)c(=O)c3ccc(C(=O)NCc4ccccc4Cl)cc32)cc1 the results were VDR inhibitor -2.9%.
`O=C(O)CCn1cc(/C=C/C(=O)c2ccc(Cl)cc2)c(-c2cccc(Br)c2)n1` gave VDR inhibitor 15.8µM*.
For CC(=O)N1CCN(C(=S)c2ccc(-c3ccc(Cl)cc3)o2)CC1 the results were VDR inhibitor 50.1µM*.
Screening O=C1/C(=C/N(C(=O)c2ccco2)c2ccc(Cl)cc2)Sc2ccccc21 returned VDR inhibitor -14.9%.
Screening COc1ccc(-c2noc(CCC(=O)NCc3ccc(OC)cc3OC)n2)cc1 returned VDR inhibitor 1.1%.
COc1ccc(CCNC(=O)C(=O)NCC2CCCN2S(=O)(=O)c2cc(C)ccc2C)cc1 (stereo unspecified) was read as VDR inhibitor 7.2%.
Screening Cc1ccccc1C(C)NC(=O)COC(=O)Cn1cc(C(F)(F)F)ccc1=O (stereo unspecified) returned VDR inhibitor -7.2%.
COc1ccc(NC2=CC(c3ccc(OC)cc3)N(c3ccc(OC)cc3)C2=O)cc1 (stereo unspecified) was read as VDR inhibitor -27.1%.
For COc1cc(/C=N/NC(=O)c2cccc3ccccc23)cc(OC)c1OC the results were VDR inhibitor -15.2%.
For CCOc1ccc(CCNC(=O)COC(=O)c2cccc(S(=O)(=O)N3CCOCC3)c2)cc1OCC the results were VDR inhibitor 7.4%.
`COc1cc(OC)cc(-c2cc3nc(C)c(CCC(=O)NCc4ccccc4)c(C)n3n2)c1` gave VDR inhibitor -1.7%&-8.8%.
`COc1ccc(-n2nnc(-c3nsc(NC(=O)c4cccc(C)c4)n3)c2C)cc1OC` gave VDR inhibitor -0.9%.
C[C@]12C=CC(=O)C=C1CCC1C2C(=O)C[C@]2(C)C1CC[C@]2(O)C(=O)CO (stereo partly specified) was read as VDR inhibitor 8.1%.
CC(=O)Nc1nnc(SCc2ccc(F)cc2)s1 was read as VDR inhibitor -23.4%.
Screening Cc1ccc(N2CC(C(=O)Nc3ccccc3C(=O)NC3CCCCC3)CC2=O)cc1C (stereo unspecified) returned VDR inhibitor 13.4%.
COc1ccc(NC(=O)CSc2nnnn2C2CCCC2)c(OC)c1 was read as VDR inhibitor -18.7%.
For O=C(CSc1nnc(CNC(=O)c2ccccc2)o1)NCCc1ccccc1 the results were VDR inhibitor -4.1%.
Screening COc1ccc(-c2nnc(SC)n2C)cc1 returned VDR inhibitor 2.0%.
Cc1c(C2=CCN(S(=O)(=O)c3ccc(Br)cc3)CC2)c2ccccc2n1CC(=O)N1CCCC1 was read as VDR inhibitor -13.3%.
`COc1ccccc1/C=C/C(=O)N1CCc2cc(OC)c(OC)cc2C1C` (stereo unspecified) gave VDR inhibitor 5.9%.
Screening CCc1cc(C(=O)Cc2ccc(F)cc2)c(O)cc1O returned VDR inhibitor -5.4%.
`COC(=O)COc1cccc2c(=O)n(CC(=O)NCCc3ccc(OC)c(OC)c3)ccc12` gave VDR inhibitor -16.8%.
CCc1ccc(CN2CCC(n3nccc3NC(=O)c3ccc4c(c3)OCO4)CC2)cc1 was read as VDR inhibitor 1.5%.
O=C(Nc1cccc(Cl)c1Cl)c1cc2nc(-c3ccc4c(c3)OCO4)cc(C(F)(F)F)n2n1 was read as VDR inhibitor 4.5%.
COc1ccc(OC)c(Nc2nc3nonc3nc2N2CCCCC2)c1 was read as VDR inhibitor -6.4%.
Screening Cn1c(=O)c2c(ncn2CCC(=O)N/N=C/c2ccncc2)n(C)c1=O returned VDR inhibitor 4.8%.
`COCCN(C(=O)C1CCC1)c1nnc(-c2cccnc2)s1` gave VDR inhibitor -17.8%.
For COc1cc(OC)c(C(=O)OCC(=O)Nc2ccc(N3CCOCC3)cc2)cc1OC the results were VDR inhibitor 4.0%.
Screening N#C/C(=C\c1ccc([N+](=O)[O-])cc1)C(=O)NCCCn1ccnc1 returned VDR inhibitor -8.8%.
Screening Cc1cc(C)n(C(=O)/C(C#N)=C/N(C)C)n1 returned VDR inhibitor -8.6%.
For COC(=O)Cc1nc(Nc2ccccc2)sc1C the results were VDR inhibitor 0.9%.
Screening COc1ccc(C(C)(C)C)cc1NC(=O)c1ccoc1C returned VDR inhibitor 13.2%.
For CCN(C(=O)Cn1nc(C(=O)O)c2ccccc2c1=O)C1CCCCC1 the results were VDR inhibitor -9.6%.
CCn1c(C)c(C)c2cc(C(=O)NCC(C)c3ccccc3)ccc21 (stereo unspecified) was read as VDR inhibitor 6.3%.
Screening CCN(C(=O)CSc1nc2ccccc2n1CC(=O)Nc1ccccc1C)c1ccccc1 returned VDR inhibitor 7.9%.
Screening O=c1oc(-c2ccccc2[N+](=O)[O-])nc2ccccc12 returned VDR inhibitor inconclusive.
O=C(NCc1cccs1)c1ccc(CS(=O)Cc2cccc(Cl)c2)o1 (stereo unspecified) was read as VDR inhibitor 0.9%.
Cc1nonc1C(=O)N/N=C/c1ccncc1 was read as VDR inhibitor 13.1%.
For CCCS(=O)(=O)c1nc(S(=O)(=O)c2ccc(C)cc2)c(N2CC(C)OC(C)C2)s1 (stereo unspecified) the results were VDR inhibitor 6.9%.
For CC(Sc1nnc(Cc2ccc3c(c2)OCO3)o1)C(N)=O (stereo unspecified) the results were VDR inhibitor 10.6%.
For CCc1ccc(NC(=O)C(C)Oc2nnc(-c3cccs3)c(-c3cccs3)n2)cc1 (stereo unspecified) the results were VDR inhibitor 36.5%[activator].
For Cc1cccc(N2CCN(C(C)C(=O)N3CCc4ccccc43)CC2)c1C (stereo unspecified) the results were VDR inhibitor -23.2%.
`Cn1nc(C(=O)N2CCOCC2)c2ccccc2c1=O` gave VDR inhibitor 13.2%.
CCOC(=O)CSc1nnc(Cn2nnc(-c3ccccc3)n2)n1CC was read as VDR inhibitor 12.3%.
For C/C(=N/OC(=O)c1cccc(C(F)(F)F)c1)c1cnccn1 the results were VDR inhibitor -16.5%.
`COc1nccnc1NS(=O)(=O)c1ccc(NC(=S)NC(=O)/C=C/c2ccccc2)cc1` gave VDR inhibitor inconclusive.
For COc1cc(C(=O)Nc2ccc(S(=O)(=O)N(C)c3ccccc3)cc2)cc(OC)c1OC the results were VDR inhibitor 1.8%.
O=C(Cc1c(F)cccc1Cl)NCc1cccnc1 was read as VDR inhibitor -8.6%.

The final 2 records of the section above are carried over, then new ones follow.
For COc1cc(C(=O)Nc2ccc(S(=O)(=O)N(C)c3ccccc3)cc2)cc(OC)c1OC the results were VDR inhibitor 1.8%.
O=C(Cc1c(F)cccc1Cl)NCc1cccnc1 was read as VDR inhibitor -8.6%.
For Cc1ccc2cccc(OCCCOc3ccccc3CO)c2n1 the results were VDR inhibitor -15.9%.
`O=c1sc(/C=N/Nc2ccccc2)c(Cl)n1Cc1ccccc1` gave VDR inhibitor -26.2%.
For COc1ccc(OCC(=O)OCC(=O)NC2CCCC2)cc1 the results were VDR inhibitor -20.2%.
`COc1cccc(CNC(=O)c2ccc3c(Cl)c4c(nc3c2)CCCC4)c1` gave VDR inhibitor 2.3%.
For Cc1nc2ncnn2c(N2CCC(C(=O)NC3CCCC3)CC2)c1Cc1ccccc1 the results were VDR inhibitor 21.4%.
CC1Cc2ccccc2N1CC(=O)Nc1cccc(S(N)(=O)=O)c1 (stereo unspecified) was read as VDR inhibitor -1.5%.
Screening Cn1nccc1C(=O)N1CCc2c([nH]c3ccccc23)C1c1ccc(F)cc1 (stereo unspecified) returned VDR inhibitor -22.0%.
O=S(=O)(c1ccccc1)N1CCC2(CC1)CN(c1ncccn1)C2 was read as VDR inhibitor 0.8%.
`CS(=O)(=O)N1CCN(C(=O)c2cc(-c3cccnc3)nc3ccc(Br)cc23)CC1` gave VDR inhibitor 11.4%.
For CC1CCCCN1C(=O)CSc1nnc(-c2cccnc2)n1C1CCCCC1 (stereo unspecified) the results were VDR inhibitor -7.9%.
`CCOC(=O)c1c(C)n(C)c2ccc(O)c(CN3CCN(C)CC3)c12` gave VDR inhibitor -5.4%.
COC(=O)c1ccc(NC(=O)c2snnc2-c2ccccc2)cc1 was read as VDR inhibitor -4.1%.
For CCOC(=O)c1c(NC(=O)c2cc(-c3ccccc3)on2)sc2c1CCCC2 the results were VDR inhibitor 14.8%.
For COCC(C)n1c(C)cc(C(=O)COC(=O)c2ccc(N3CCCC3=O)cc2)c1C (stereo unspecified) the results were VDR inhibitor 15.4%.
Screening COc1ccccc1CNC(=O)CCn1c(=O)c2ccccc2n(CC(=O)Nc2ccc(C)cc2)c1=O returned VDR inhibitor -2.3%.
Screening Cc1ccc([C@H]2C(C(=O)O)=CC[C@@H](c3cccc(C)c3)N2S(=O)(=O)c2ccc(C)cc2)cc1 returned VDR inhibitor -18.1%.
For COc1cc(/C=C/c2nc(N)nc(-c3ccccc3O)n2)cc(OC)c1OC the results were VDR inhibitor -1.3%.
For O=C(C[C@@H]1C/C=C\C[C@H](Cc2ccc(F)cc2)C(=O)OCCNC1=O)NCCO the results were VDR inhibitor -7.3%.
Cc1ccc(/C=C/C(=O)N2CC(C)CC(C)C2)o1 (stereo unspecified) was read as VDR inhibitor inconclusive.
Screening O=C(NCC1CCCO1)C(c1ccncc1)N(Cc1ccc(F)cc1)C(=O)CN1C(=O)c2ccccc2S1(=O)=O (stereo unspecified) returned VDR inhibitor -3.0%.
`CC1CCCN(S(=O)(=O)c2ccc3c(c2)CCN3C(=O)CCC(=O)O)C1` (stereo unspecified) gave VDR inhibitor 9.4%.
For COc1ccccc1C(CNc1ncnc2sc(C)c(C)c12)N(C)C (stereo unspecified) the results were VDR inhibitor -7.1%.
COC(=O)c1cc(=O)n(Cc2ccc3c(c2)OCO3)c(=Nc2ccccc2)s1 was read as VDR inhibitor -8.3%.
For Cc1cc(C)c(NC(=O)c2cc(S(=O)(=O)N3CCOCC3)ccc2F)c(C)c1 the results were VDR inhibitor inconclusive.
`Cc1c(C(=O)NC2CCS(=O)(=O)C2)oc2ccccc12` (stereo unspecified) gave VDR inhibitor -2.9%.
CCN(CC(=O)NC(=O)NCc1ccco1)Cc1ccccc1 was read as VDR inhibitor -2.2%.
Cc1ccc(S(=O)(=O)c2cc(C)cc(S(=O)(=O)Nc3ccc(C(=O)O)cc3)c2C)cc1 was read as VDR inhibitor -8.6%.
O=C(NCc1ccc(F)cc1)Nc1cccc(Cl)c1 was read as VDR inhibitor 5.3%.
For CCCCCc1ccc(-c2cn(Cc3ccc([N+](=O)[O-])cc3)nn2)cc1 the results were VDR inhibitor -0.5%.
CC(=O)Nc1ccc2nc(C3CCCCC3)[nH]c2c1 was read as VDR inhibitor 13.2%.
For CCOc1ccc(NC(=O)CN(C)C(=O)C2CCCO2)cc1OCC (stereo unspecified) the results were VDR inhibitor 1.4%.
O=C(CCSc1ccc(Cl)cc1)NN=C1CCCCCC1 was read as VDR inhibitor 4.0%.
For COc1ccc(-c2n[nH]c(=S)n2/N=C/C=C\c2ccccc2OC)cc1 the results were VDR inhibitor -13.4%.
Cc1nnc(NC(=O)CSc2nnc3c(n2)[nH]c2ccc(Br)cc23)s1 was read as VDR inhibitor -6.3%.
COCC(=O)N(c1ccccc1)C(C)C(=O)OC (stereo unspecified) was read as VDR inhibitor 2.5%.
Screening Cc1ccc(-n2ncc3c(NCCCOC(C)C)ncnc32)c(C)c1 returned VDR inhibitor 1.4%.
Screening CCn1cc(C(=O)NCc2ccco2)c(=O)c2cc(S(=O)(=O)N3CCc4ccccc4C3)ccc21 returned VDR inhibitor -2.9%.
For O=S(=O)(NCc1ccco1)c1ccccc1Br the results were VDR inhibitor -11.2%&-4.5%.
For C#CCNC(=O)C1=C[C@H](c2csc3ccccc23)[C@@H](CCCO)[C@H](OCC)O1 the results were VDR inhibitor -25.5%.

An excerpt; the hit share may differ from the screen's.
